UUG fidelity: alters start codon recognition fidelity in yeast; hit rate 0.13% among 350,000; AID 602363; S. cerevisiae UUG-firefly luciferase reporter, luminescence/redox ratio; activity score, % at 18.7 µM;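 active = replicate mean at a twofold rise or more, about +100% in these data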;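 also: firefly luciferase made from a UUG start codon reports start codon fidelity; reporter light over untreated wells divided by growth signal over untreated wells; some hits fall short of that in this replicate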
Rce1 inhib: blocks yeast Ras-converting enzyme; yeast membranes, quenched prenylated peptide cleavage fluorescence; calls only; hit rate 0.27% among 290,000;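 active = fall in fluorescence gain of 50% or more versus controls, with final raw signal at or below 3038400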;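 also: plate controls were neutral control wells for no effect and wells lacking membranes for full effect; tested at 10 µM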
Env fusion inh: HIV envelope-mediated fusion inhibition; AID 651610; HeLa-JRFL Env/CEM21 cell fusion, luciferase; inhibition, % at 12.3 µM; hit rate 1.1% among 360,000;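 active = mean replicate inhibition score of at least 50 and every replicate individually at or above 50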;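 also: 0% = plate neutral controls and 100% = maraviroc near 300 nM; one replicate is shown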
MT1-MMP act inh: MT1-MMP (human) activation inhibition; GFP/RFP ratio change, % at 20 µM; HT1080 RFP-PRO-GFP cells, GFP/RFP ratio fluorescence, overnight; percent of plate control window, DMSO zero; AID 651647; P50281; hit rate 0.061% among 360,000;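 active = GFP/RFP ratio change of at least 30% with cell ATP level not reduced by more than half and red fluorescence within 50% of control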; also: strong numbers were not always called active
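system = RFP-PRO-GFP reporter HT1080 cells | dosing = 20 µM single dose, 1% DMSO | timing = overnight cell settling, then overnight compound exposure, 37 °C, 5% CO2 | read-out basis = GFP/RFP fluorescence ratio | controls = DMSO and RFP-L50D-GFP cell wells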
eIF4H FP inh: inhibitors of RNA binding by human eIF4H; AID 2012; inhibition, % at 35 µM; Q15056; eIF4H fluorescence polarization binding assay; hit rate 0.94% among 290,000;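 active = 50% or more with normal probe brightness, or confirmed in later tests; about a fifth of its hits are not listed in these tables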;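 also: calls also rest on retests at 20 µM and on dose response follow-up; 0% = protein and probe with vehicle and 100% = probe without protein; strong numbers were not always called active; many hits fall short of the cut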
PABP polyA inh: PABP-poly(A) binding inhibition. PABP-poly(A) RNA binding, fluorescence polarization. inhibition, % at 35 µM. hit rate 1% among 290,000. P11940. AID 2014;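 active = 50% or more with normal probe brightness, or confirmed in later tests; about a fifth of its hits are not listed in these tables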;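 also: calls also rest on retests at 20 µM and on dose response follow-up; controls were probe without protein and protein plus probe with vehicle; some compounds called inactive have numbers as strong as hits; many hits fall short of the cut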
Target sequence (P11940 whole entry, looked up): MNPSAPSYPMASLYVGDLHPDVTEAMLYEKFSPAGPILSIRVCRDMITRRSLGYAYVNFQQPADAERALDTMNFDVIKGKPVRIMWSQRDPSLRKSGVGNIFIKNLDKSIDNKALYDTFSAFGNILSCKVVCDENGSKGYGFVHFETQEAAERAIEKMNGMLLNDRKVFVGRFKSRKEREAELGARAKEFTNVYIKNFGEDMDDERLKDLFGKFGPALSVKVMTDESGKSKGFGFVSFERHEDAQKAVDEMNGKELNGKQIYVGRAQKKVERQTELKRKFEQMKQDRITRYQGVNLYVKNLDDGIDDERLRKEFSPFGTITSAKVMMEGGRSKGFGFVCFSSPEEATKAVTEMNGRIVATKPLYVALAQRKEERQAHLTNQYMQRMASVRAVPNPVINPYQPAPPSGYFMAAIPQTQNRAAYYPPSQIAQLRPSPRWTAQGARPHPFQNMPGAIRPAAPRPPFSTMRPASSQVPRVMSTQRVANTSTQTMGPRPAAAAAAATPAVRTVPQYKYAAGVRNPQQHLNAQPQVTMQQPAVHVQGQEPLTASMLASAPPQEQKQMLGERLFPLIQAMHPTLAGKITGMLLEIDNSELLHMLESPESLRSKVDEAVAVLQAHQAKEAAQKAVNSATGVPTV
CSC inhib: cancer stem cell inhibition | hit rate 1.1% among 300,000 | inhibition, % at 7.5 µM | cancer stem cell-like cells viability, luminescence;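 active = mean at 75% or more and at least half the replicates too; tested in HMLE shEcad cells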;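 also: 0% = median of negative and 100% = median of positive control wells; the first replicate is given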
eIF4H FP inh retest: second read-out of eIF4H FP inh, no call of its own (marks repeat the call); inhibition, %; compound at 20 µM; confirmation average;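 mean of two retest wells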
PABP polyA inh retest: also measured in PABP polyA inh; calls as there; inhibition, %; compound at 20 µM; confirmation repeats;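 mean of two retest wells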
MT1-MMP act inh RFP: further read-out of MT1-MMP act inh, marked with its call; RFP signal change, %; measured here: RFP expression control read;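 0 = vehicle wells; hits needed this value within 50% of zero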
Starred values were filed as active, the others as inactive; i = inactive; x = not tested or not shown; & = joins results of further samples.

SMILES	UUG fidelity	Rce1 inhib	Env fusion inh	MT1-MMP act inh	MT1-MMP act inh RFP	eIF4H FP inh	PABP polyA inh	CSC inhib	others
Cc1cc(C)cc(N(CC(=O)N2CCN(Cc3ccccc3)CC2)S(=O)(=O)c2c(C)noc2C)c1	-11	i	-38	-1	-3	-12	-2	-12
CCOC(=O)N1CCN(c2c(N3CCc4ccccc43)c(=O)c2=O)CC1	-29	i	-2	-2	4	0	-3	-14
Cc1ccc(NS(=O)(=O)c2cccc(C(=O)N(C)Cc3cccs3)c2)cc1	3	i	-7	0	-6	x	x	-1
Cc1c(NC(=O)c2cnc(Cl)c(Cl)c2)c(=O)n(-c2ccccc2)n1C	-9	x	-10	1	4	-11	-2	0
COc1ccc(CN2CC(C(=O)NCCc3ccccc3)CC2=O)cc1 (configuration not stated)	-2	i	5	-6	0	-1	0	7
COc1cc2sc(-c3ccccc3OC)c(-c3ccc(OCCN4CCCCC4)cc3)c2cc1OC	-3	x	-40	10	-5	x	x	104*
O=C(NNC(=S)NCc1ccccc1)c1ccc(Br)o1	x	i	-16	5	3	9	3	-9
O=C(CCC(=O)Nc1ccccc1)NCCO	-6	i	x	2	5	0	8	-10
COc1ccc(S(=O)(=O)Nc2c(O)ccc3ccccc23)cc1OC	-18	i	-12	5	8	x	x	9
CC(Nc1ccccc1CO)C(=O)Nc1cccc(Cl)c1Cl (configuration not stated)	-2	i	3	0	0	1	-15	32
CCc1nc2ccc(C(=O)NCc3ccc(OC)cc3)cn2c1N(C)CCC(C)C	-5	x	-125	-6	-8	x	x	x
CC1(C2CCCC2)NC(=O)NC1=O (configuration not stated)	-7	x	12	8	7	x	x	x
CC(=O)Nc1cccc(-c2ccnc3c2CC(C)(C(=O)NC(C)C)O3)c1 (configuration not stated)	-21	x	-1	-2	7	x	x	x
OC(c1cccc(OCc2ccccc2)c1)c1nnc(-c2ccccc2)o1 (configuration not stated)	1	i	73*	1	-9	-4	10	-7
CCCCCCCCS(=O)C1CS(=O)(=O)CC1O (configuration not stated)	x	i	18	3	-3	3	4	-10
O=C(CC(c1ccccc1)c1ccccc1)Nc1ncn[nH]1	-23	i	x	1	1	9	4	-9
CC(=O)Nc1cccc(-c2nnc3n2CC(C)S3)c1 (configuration not stated)	-14	i	x	0	4	-1	3	-8
CCn1cc(C(=O)N2CCCC2)c(=O)c2cc(S(=O)(=O)N3CCOCC3)ccc21	12	i	-62	-5	1	0	6	2
COc1cccc(N(C(=O)Cn2nnc(-c3ccc(Cl)cc3)n2)C(C(=O)NCC2CCCO2)c2ccc(C)cc2)c1 (configuration not stated)	-5	i	6	0	-3	-8	-3	-1
COc1cc2c(=O)n(Cc3ccccc3)c(=O)n(CC(=O)NCc3ccco3)c2cc1OC	-4	i	x	-2	7	4	-20	x
CN(C)CCNc1ncnc2c1sc1nc(N3CCCC3)c3c(c12)CC(C)(C)OC3	-2	i	14	8	0	4	3	x
O=C(COC(=O)CCc1ccccc1)Nc1ncc(Cl)cc1Cl	6	x	-44	8	1	4	5	-8
Cc1onc(-c2c(F)cccc2Cl)c1C(=O)NCCCN1CCOCC1	7	i	x	0	0	-2	-7	-11
CCOc1ccc(C(=O)Nc2cccc(-c3nc4ccccc4[nH]3)c2C)cc1[N+](=O)[O-]	-8	i	16	7	-5	3	-14	-18
CCCCN(C)C(=O)C(Cc1ccccc1)NS(=O)(=O)c1ccc2c(c1)c(=O)n(C)c(=O)n2C (configuration not stated)	14	i	48	3	0	-2	1	-1

Already shown: an excerpt of the list.
SMILES	UUG fidelity	Rce1 inhib	Env fusion inh	MT1-MMP act inh	MT1-MMP act inh RFP	eIF4H FP inh	PABP polyA inh	CSC inhib	others
Cc1ccc(NS(=O)(=O)c2cccc(C(=O)N(C)Cc3cccs3)c2)cc1	3	i	-7	0	-6	x	x	-1
Cc1c(NC(=O)c2cnc(Cl)c(Cl)c2)c(=O)n(-c2ccccc2)n1C	-9	x	-10	1	4	-11	-2	0

Returning to the listing, repeating the 6 entries before the break.
SMILES	UUG fidelity	Rce1 inhib	Env fusion inh	MT1-MMP act inh	MT1-MMP act inh RFP	eIF4H FP inh	PABP polyA inh	CSC inhib	others
COc1cc2c(=O)n(Cc3ccccc3)c(=O)n(CC(=O)NCc3ccco3)c2cc1OC	-4	i	x	-2	7	4	-20	x
CN(C)CCNc1ncnc2c1sc1nc(N3CCCC3)c3c(c12)CC(C)(C)OC3	-2	i	14	8	0	4	3	x
O=C(COC(=O)CCc1ccccc1)Nc1ncc(Cl)cc1Cl	6	x	-44	8	1	4	5	-8
Cc1onc(-c2c(F)cccc2Cl)c1C(=O)NCCCN1CCOCC1	7	i	x	0	0	-2	-7	-11
CCOc1ccc(C(=O)Nc2cccc(-c3nc4ccccc4[nH]3)c2C)cc1[N+](=O)[O-]	-8	i	16	7	-5	3	-14	-18
CCCCN(C)C(=O)C(Cc1ccccc1)NS(=O)(=O)c1ccc2c(c1)c(=O)n(C)c(=O)n2C (configuration not stated)	14	i	48	3	0	-2	1	-1
CCc1c(C)sc(NC(=O)Cc2ccccc2C)c1C(=O)N1CCOCC1	-7	i	x	-3	1	-6	2	-17
Nc1c2c(nc3ccccc13)CCC2	6	i	x	6	-3	-1	-10	6
CCOc1ccc(C(=O)NCC(=O)OCCN2C(=O)c3ccccc3C2=O)cc1OCC	14	x	x	-1	2	x	x	4
Cc1sc2ncn(CC(=O)NCCCC(=O)N3CCN(c4ccccn4)CC3)c(=O)c2c1C	17	i	x	-8	-6	-2	-2	6
CC(C)(C)OC(=O)N[C@@H](COCc1ccccc1)C(=O)N[C@@H](CO)[C@H](O)[C@@H]1C[C@@H]1C(=O)NC1CC1	5	i	-37	10	9	4	7	7
CCOC(=O)CC(=O)CSc1ncnc2c1oc1ccccc12	-14	i	x	-10	0	34	53	-2	eIF4H FP inh retest=7;PABP polyA inh retest=38
CCOC(=O)c1nnsc1NC(C)=O	-1	i	14	-6	-5	1	6	14
COc1ccc(NC(=O)c2sc3nc(C)nc(N4CCOCC4)c3c2C)c(OC)c1	-6	i	5	-13	-8	0	-3	-8
CCC(C)(C)NC(=O)C(c1ccc(OC)cc1)N(C(=O)CCC(=O)Nc1cc(C)on1)C1CC1 (configuration not stated)	-9	i	6	1	4	3	4	x
CCCSc1nnc(NC(=O)CSc2sc3c(O)cc(=O)[nH]c3c2C#N)s1	-8	i	-2	-6	-3	72*	46*	2	eIF4H FP inh retest=91*;PABP polyA inh retest=78*
Cn1c(CN2CCN(C(=O)c3ccco3)CC2)nc2cc([N+](=O)[O-])ccc21	-12	i	6	4	6	-3	12	4
COc1cc(NC(=O)c2ccc(Cl)cc2)c(OC)cc1Cl	-1	i	4	-1	1	-4	-1	-2
Clc1ccc(-n2cccc2)cn1	-12	i	-8	-13	0	7	-6	3
CC1CN(C(=O)c2ccc(NS(=O)(=O)c3ccc(F)c(F)c3)cc2)CC(C)O1 (configuration not stated)	1	i	3	2	1	x	x	-8
Cc1cc(C(=O)N/N=C/c2c(CO)cnc(C)c2O)c2ccccc2n1	-28	i	0	2	5	3	-8	13
CC(C)c1cc(C(=O)Nc2sc3c(c2C#N)CCC3)no1	x	i	x	0	-11	-5	2	49
CN1CCN(c2nc(-c3ccccc3)c3cc(Cl)ccc3n2)CC1	-12	i	-34	-12	-9	-6	0	23
CCN(C(N)=S)c1ccccc1	-22	i	x	1	6	41	36	3
O=C1CC(Nc2ccc(N3CCOCC3)cc2)C(=O)N1Cc1ccccc1 (configuration not stated)	x	i	-38	28	16	0	6	x
CC1CC(C)CN(C(=O)COC(=O)c2cncc(Br)c2)C1 (configuration not stated)	-19	x	-8	-3	1	x	x	-23
Cc1ccc(C(=O)c2sc3c(c2N)c(=O)[nH]c(=O)n3CCc2ccccc2)cc1	x	i	11	-1	-2	-14	-10	-13
CCCCCC(=O)NN1C(=S)N(c2ccc(OC)cc2)C(=O)C1CC(=O)Nc1ccccc1 (configuration not stated)	-4	i	-20	1	-1	6	0	-12
Cc1ccc(C(=O)COC(=O)CN2C(=O)C3C4C=CC(C4)C3C2=O)cc1C (configuration not stated)	8	i	-12	2	2	-1	5	1
COC(=O)C(Cc1ccccc1)NC(=O)c1cc(S(=O)(=O)N(C)C)ccc1Cl (configuration not stated)	x	i	15	1	3	-9	3	11
CC(C)c1ccccc1-n1c(SCC(=O)N2CCc3ccccc3C2)nc2ccccc2c1=O	-10	i	60*	-20	-26	5	120*	12	eIF4H FP inh retest=44;PABP polyA inh retest=73*

(further entries)
SMILES	UUG fidelity	Rce1 inhib	Env fusion inh	MT1-MMP act inh	MT1-MMP act inh RFP	eIF4H FP inh	PABP polyA inh	CSC inhib	others
CC(C)COC(=S)Nc1ccccc1	-17	i	x	2	3	2	0	-14
COc1ccc(C(=O)C2CCCN(C(=O)Cn3nc(C)cc3C)C2)cc1F (configuration not stated)	-32	i	-7	-1	-3	-4	0	-14
COc1ccc(OC)c(NC(=O)C2C3C=CC(C3)C2C(=O)NCc2cccnc2)c1 (configuration not stated)	x	x	-7	1	2	-8	8	-8
COc1ccc(-c2csc(C(C)(O)c3ccc(OC)cc3)n2)cc1 (configuration not stated)	-4	x	20	-4	-16	x	x	x
S=C(NCc1ccccc1)Nc1ccc(Oc2ccccc2)cc1	-27	i	-7	1	-5	-2	2	27
Cc1ccccc1NC(=O)Nc1nc2ccc(S(C)(=O)=O)cc2s1	-9	i	-106	-3	2	-6	6	2
CC1CCCC(NC(=O)CN(C)S(=O)(=O)c2cnc[nH]2)C1C (configuration not stated)	x	i	-1	0	0	-2	2	-12
Cc1cccc(CCN=c2c([N+](=O)[O-])nn(-c3ccccc3)n2O)c1	-2	i	-13	0	0	8	-3	-3
C#CCN1C(=O)S/C(=C\c2ccc(-c3ccc(C(=O)O)cc3C)o2)C1=O	-12	i	-117	5	-2	76*	72*	-10
CCOc1cc(/C=C2\C(=O)N(Cc3ccc(C)cc3)C(C)=C2C(=O)OC)ccc1O	-4	i	x	1	-6	-1	0	36
Cc1ccc(-c2noc(CCC(=O)NCc3ccco3)n2)cc1	7	i	-22	0	2	14	16	5
Cc1cccc(NC(=O)Nc2ccc3c(c2)N(C)C(=O)CS3)n1	-22	i	-78	1	-3	2	1	-1
O=C(O)COc1ccc2c(c1)O/C(=C\c1cccs1)C2=O	5	x	-5	-16	-3	-6	5	0
CCc1ccc(C(=O)COC(=O)C(Cc2ccccc2)NC(=O)c2ccc(Cl)cc2)cc1 (configuration not stated)	8	i	-52	-1	3	9	12	-7
Cc1ccc(S(=O)(=O)N(C)C[C@@H]2Oc3ccc(NC(=O)Cn4cnnn4)cc3C(=O)N([C@@H](C)CO)C[C@H]2C)cc1	3&-8	x	22	5	4	x	x	-23
CO[C@H]1O[C@H](C)[C@@H](O)C[C@H]1NC(=O)OCc1ccccc1	-5	i	-8	0	-1	-6	2	-8
Cc1[nH]n(-c2ccc([N+](=O)[O-])cc2)c(=O)c1C=NCC1CCCO1 (configuration not stated)	-16	i	1	1	0	-13	-15	-10
CC(C)=C1C2C=CC1C1C(=O)N(c3ccc4c(c3)OCO4)C(=O)C21 (configuration not stated)	-30	i	-67	2	0	-3	-17	33
Cc1ccc2c(C)c(C(=O)N3CCN(c4cnccn4)CC3)oc2c1C	-2	i	-3	-2	-2	-4	7	-1
O=C(CSc1ccc2nnc(-c3ccc(Cl)cc3)n2n1)N1CCc2ccccc21	-19	i	3	-3	-5	0	-11	4
CCCCNC(=O)CCC(=O)Nc1ncc(-c2ccc(C)cc2)n1C	-27	i	-117	-2	-15	-6	-5	-12
Cc1cnc(C(=O)OCC(=O)Nc2cccc3ccccc23)cn1	0	x	2	1	2	x	x	-15
C=C(C)C(=O)Nc1ccc2c(c1)OCCOCCOCCO2	5	i	-8	0	3	90*	49*	-15	eIF4H FP inh retest=89*;PABP polyA inh retest=74*
O=C(CSc1nc2ccccc2c(=O)n1Cc1ccc(F)cc1)NCc1cccs1	x	i	62*	0	1	-8	-2	-7

Screening results (PubChem BioAssay)
